DUX4 inh: blocks DUX4-driven transcriptional activation | AID 1224904 | hit rate 0.8% among 37,000 | 293T-iDUX4 ZSCAN4-Gaussia luciferase reporter, 24 h; hits give low values | activity change, negative = inhibition, % (concentration not given with the values);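 active = -10% or lower and over 25 points stronger than a control reporter; inconclusive = -10% or lower with a smaller gap; inactive = above -10%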;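 note: 0% = median of neutral control wells and -100% = median of positive control wells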
DUX4 inh difference: further read-out of DUX4 inh, marked with its call; Gaussia minus Italica difference, %; measured here: selective DUX4 reporter inhibition;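 worked out from the two reporters; negative = selective loss of the DUX4 reporter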
DUX4 inh control: also measured in DUX4 inh; calls as there; activity change, negative = inhibition, %; measured here: Italica tet-on control reporter;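 0 = neutral control and -100 = positive control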
An asterisk follows results filed as active; u = inconclusive; x = not tested or not shown; & = joins results of further samples. Only part of the results is shown; count on the stated rates, not on these rows.

The line under a structure holds: DUX4 inh, DUX4 inh difference, DUX4 inh control
N#C[C@@H]1[C@H](c2ccc(C#Cc3cccc(F)c3)cc2)[C@@H](CO)N1C(=O)C1CCCC1
    0, -2, 2.1
COCC(=O)NC[C@@H]1N[C@@H](CO)[C@H]1c1ccc(C2=CCCCC2)cc1
    -3, -4, 1.4
CNC[C@H]1Oc2c(NS(=O)(=O)c3cn(C)cn3)cccc2C(=O)N([C@@H](C)CO)C[C@@H]1C
    4, 0, 3.7
CO[C@H]1CC[C@H]2CCN(C)C(=O)[C@@H](C)N(C)C(=O)c3cc(C#N)ccc3OC[C@@H]1O2
    5, 1, 4.2
C/C=C/c1ccc(C2[C@H]3CNC[C@@H]2N3S(C)(=O)=O)cc1 (stereo partly drawn)
    13&20, 1&12, 13&8.5
O=C(NC1CCCC1)N1CC2(C1)[C@@H](c1ccccc1)[C@@H](CO)N2CC1CC1
    13, 11, 1.3
O=C(C[C@@H]1C[C@@H]2c3cc(NC(=O)NC4CCCC4)ccc3O[C@@H]2[C@H](CO)O1)NCc1ccncc1
    -5, -7, 1.6
COc1ccc2c3c([nH]c2c1)[C@H](CO)N(Cc1ccccc1Cl)CC31CCN(C(C)=O)CC1
    -28*, -30*, 2.0*
C[C@H](NC(=O)C[C@@H]1C[C@H]2c3cc(NC(=O)C4CCOCC4)ccc3O[C@H]2[C@H](CO)O1)c1ccccc1
    7, -3, 11
Cc1ccccc1-c1ccc([C@H]2[C@H](CO)N3CCCCN(S(=O)(=O)Cc4ccccc4)C[C@@H]23)cc1
    u, x, x
O=C(C[C@H]1C=C[C@H](NC(=O)Cc2ccccn2)[C@@H](CO)O1)NCCc1ccncc1
    4, 9, -4.8
CCCNC(=O)[C@H]1[C@H](CO)[C@H]2Cn3c(ccc(C4=CCCC4)c3=O)[C@@H]1N2Cc1ccncc1
    2, -12, 14
Cc1ccccc1-c1ccc([C@H]2[C@@H](CO)N3CCCCN(S(=O)(=O)c4ccc(F)cc4)C[C@@H]23)cc1
    u, x, x
CO[C@H]1CN(C)C(=O)c2ccc(NC(=O)c3ccccc3F)cc2OC[C@@H](C)N(C)C[C@H]1C
    2, 1, 0.6
O=C(C1CCOCC1)N1CC[C@H]2[C@H](CO)Nc3ccc(Br)cc3[C@H]21
    21, 5, 15
COc1ccc(CNC(=O)C[C@@H]2C=C[C@@H](NC(=O)c3cccc(F)c3)[C@H](CO)O2)cc1
    -1, -1, 0.1
Cc1cccc(S(=O)(=O)N(C)C[C@H]2OCc3ccccc3-c3ccccc3C(=O)N([C@H](C)CO)C[C@@H]2C)c1
    -2, -8, 6.8
C[C@H](CO)N1C[C@H](C)[C@H](CN(C)C(=O)Cc2ccccc2)OCCCC[C@H](C)Oc2ccc(NS(C)(=O)=O)cc2C1=O
    -5, -4, -1.8
COc1cccc(C#Cc2ccc3c(c2)[C@@H]2[C@@H](CCN2S(=O)(=O)c2ccccc2)[C@@H](CO)N3)c1
    9, -6, 15
COc1cccc(S(=O)(=O)Nc2ccc3c(c2)[C@@H]2C[C@H](CC(=O)NCc4cccc(F)c4)O[C@H](CO)[C@@H]2O3)c1
    1, 7, -5.6
C[C@H]1CN([C@@H](C)CO)C(=O)Cc2cc(N(C)C)ccc2O[C@@H]1CN(C)CC1CC1
    4, 0, 4.0
Cc1cccc(S(=O)(=O)N2CC[C@@H]3[C@H]2c2cc(-c4cccc(C#N)c4)ccc2N(C)[C@H]3CO)c1
    u, x, x
N#C[C@@H]1[C@@H](c2ccc(C#Cc3ccccc3F)cc2)[C@H](CO)N1C(=O)C1CCOCC1
    7, 2, 5.1
O=C(C[C@@H]1CC[C@@H]2NC[C@@H](O)COC[C@H]2O1)NCc1ccc2c(c1)OCO2
    2, 2, -0.6
CO[C@@H]1CN(C)C(=O)c2ccc(NC(=O)c3cnccn3)cc2OC[C@@H](C)N(CC2CC2)C[C@@H]1C
    -3, -6, 3.1
O=C(C1CCOCC1)N1CC(=O)N2[C@H](CO)[C@H](c3ccc(C#CCc4ccccc4)cc3)[C@H]2C1
    -5, -9, 4.1
O=C(C[C@@H]1CC[C@H](NC(=O)CN2CCOCC2)[C@@H](CO)O1)NCCc1ccncc1
    1, 4, -3.3
COc1ccccc1-c1ccc(C2[C@@H]3CN(C(=O)c4ccncc4)C[C@H]2N3)cc1 (stereo partly drawn)
    9&5, 11&-11, -2.9&16
CNC[C@@H]1Oc2ccc(NC(=O)CCC(F)(F)F)cc2C(=O)N([C@@H](C)CO)C[C@@H]1C
    2, -1, 2.5
CO[C@H]1CN(C)C(=O)c2ccc(NS(C)(=O)=O)cc2OC[C@@H](C)N(C(=O)CN(C)C)C[C@H]1C
    1, 4, -3.4
C/C=C/c1ccc2c(c1)O[C@H](CN(C)CC1CCOCC1)[C@H](C)CN([C@H](C)CO)S2(=O)=O
    -4, -5, 1.6
COc1ccc(NC(=O)N(C)C[C@H]2Oc3c(NS(=O)(=O)c4c(C)noc4C)cccc3C(=O)N([C@@H](C)CO)C[C@H]2C)cc1
    3, 1, 2.3
CC(=O)N(C)C[C@@H]1[C@@H](c2ccc(-c3cccc(C#N)c3)cc2)[C@H](CO)N1C(C)=O
    -1, 0, -1.1
C[C@H](CO)N1C[C@H](C)[C@H](CN(C)C(=O)c2ccccc2)OCc2ccccc2-c2ccccc2C1=O
    u, x, x
CC(=O)N1CCCCN2[C@@H](CO)[C@@H](c3ccc(-c4ccccc4)cc3)[C@@H]2C1
    15, 12, 2.6
COc1ccc2c3c(n(C)c2c1)[C@H](CO)N(Cc1ccccc1Cl)CC31CN(C(C)=O)C1
    3, -2, 4.8
C[C@H]1CN([C@@H](C)CO)C(=O)CCCn2cc(nn2)CO[C@H]1CN(C)C(=O)C1CC1
    6, 4, 1.8
CO[C@H](CN(C)C(=O)c1cnccn1)[C@@H](C)CN([C@@H](C)CO)S(=O)(=O)c1ccccc1
    -4, 1, -4.4
C[C@@H]1CN([C@H](C)CO)C(=O)c2c(c3ccccc3n2C)-c2ccccc2CO[C@H]1CN(C)Cc1ccc2c(c1)OCCN2C
    -2, 1, -3.0
C[C@H]1CN([C@@H](C)CO)C(=O)c2c(c3ccccc3n2C)-c2ccccc2CO[C@H]1CN(C)S(=O)(=O)CC(F)(F)F
    -10, -9, -0.5

Quoted at random: 2 records from the list, in no set order.
The line under a structure holds: DUX4 inh, DUX4 inh difference, DUX4 inh control
CO[C@H]1CN(C)C(=O)c2ccc(NC(=O)c3ccccc3F)cc2OC[C@@H](C)N(C)C[C@H]1C
    2, 1, 0.6
CC(=O)N(C)C[C@@H]1[C@@H](c2ccc(-c3cccc(C#N)c3)cc2)[C@H](CO)N1C(C)=O
    -1, 0, -1.1

(list continues)
The line under a structure holds: DUX4 inh, DUX4 inh difference, DUX4 inh control
C[C@H](CO)N1C[C@H](C)[C@H](CN(C)C(=O)Nc2cccc3ccccc23)OCCCC[C@H](C)Oc2ccc(NS(=O)(=O)c3cn(C)cn3)cc2C1=O
    1, 3, -1.4
OC[C@@H]1[C@H](c2ccccc2)C2(CN(Cc3ccccc3F)C2)N1Cc1ccccc1F
    u, x, x
CCNC(=O)C[C@@H]1CC[C@H]2[C@@H](COc3ccc(NC(=O)Nc4ccccc4Cl)cc3C(=O)N2C)O1
    3, 2, 0.8
CC(C)[C@H]1C/C=C\CCNC(=O)[C@H](C)CC(=O)N1
    1, 6, -5.3
C[C@H](CO)N1C[C@H](C)[C@H](CN(C)S(=O)(=O)c2ccsc2)OCc2ccccc2-c2ccccc2C1=O
    u, x, x
CCCNC(=O)NC[C@@H]1[C@H](c2ccc(C3=CCCCC3)cc2)[C@H](CO)N1C(C)=O
    0, 1, -0.3
CC(C)[C@H]1COCc2cn(nn2)CC[C@@H](C)C(=O)N1
    0, 0, 0.1
O=C(CN1CCOCC1)N1CC2(C1)[C@H](c1ccccc1)[C@H](CO)N2Cc1ccc(F)cc1
    0, -1, 0.9
CS(=O)(=O)Nc1ccc2c(c1)[C@@H]1C[C@@H](CC(=O)NCCN3CCCCC3)O[C@H](CO)[C@@H]1O2
    7, 0, 7.6
OC[C@@H]1[C@H](c2ccc(C#CC3(O)CCCC3)cc2)[C@@H]2CN(Cc3cncnc3)CCCCN12
    27, 31, -4.5
C[C@H]1CN([C@@H](C)CO)C(=O)c2ccccc2-c2ccccc2CO[C@H]1CN(C)S(=O)(=O)c1ccccc1C#N
    -6, -3, -2.2
O=C(c1ccccn1)N1C[C@@H]2[C@H](c3ccccc31)[C@H](CO)N2C(=O)Nc1ccccc1Cl
    3, 0, 3.2
COc1cccc(C(=O)Nc2ccc3c(c2)C(=O)N(C)[C@@H]2CC[C@@H](CC(=O)NCC(F)(F)F)O[C@@H]2CO3)c1
    0, -3, 2.9
CCCN1[C@H](CO)[C@H](c2ccc(C#Cc3ccccc3)cc2)[C@@H]1CNC1CCCC1
    1, 3, -1.8
CCCNC(=O)[C@@H]1[C@@H](CO)[C@@H]2Cn3c(ccc(C4=CCCCC4)c3=O)[C@H]1N2Cc1cocn1
    -8, -6, -1.6
Cc1cccc(S(=O)(=O)N2CC[C@H]3[C@@H](CO)N(C)c4ccc(-c5cccc(C#N)c5)cc4[C@H]32)c1
    u, x, x
O=C(Cc1ccccn1)N1CC(=O)N2[C@H](CO)[C@H](c3ccc(C#CC4CC4)cc3)[C@@H]2C1
    18, 7, 10
C[C@H]1CN([C@@H](C)CO)C(=O)CCCn2cc(nn2)CO[C@H]1CN(C)C(=O)c1cc(-c2ccccc2)on1
    1, -1, 1.5
C[C@H](CO)N1C[C@H](C)[C@H](CN(C)S(=O)(=O)c2ccccc2C#N)OCc2cn(nn2)CCCC1=O
    4, 0, 3.8
COCC(=O)Nc1ccc2c(c1)[C@@H]1C[C@@H](CC(=O)N[C@H](C)c3ccccc3)O[C@@H](CO)[C@@H]1O2
    6, 2, 4.0

Entries of single compounds as entered above.
C[C@H](CO)N1C[C@H](C)[C@H](CN(C)S(=O)(=O)c2ccccc2C#N)OCc2cn(nn2)CCCC1=O reads DUX4 inh: 4; DUX4 inh difference: 0; DUX4 inh control: 3.8
OC[C@@H]1[C@H](c2ccc(C#CC3(O)CCCC3)cc2)[C@@H]2CN(Cc3cncnc3)CCCCN12 reads DUX4 inh: 27; DUX4 inh difference: 31; DUX4 inh control: -4.5

Further records
The line under a structure holds: DUX4 inh, DUX4 inh difference, DUX4 inh control
C[C@@H]1CCCCO[C@@H](CN(C)C(=O)CCCN(C)C)[C@@H](C)CN([C@@H](C)CO)C(=O)c2cc(NC(=O)c3ccccc3)ccc2O1
    2, 2, -0.1
Cc1ccccc1-c1ccc(C2[C@H]3CNC[C@@H]2N3Cc2ccc3c(c2)OCO3)cc1 (stereo partly drawn)
    u, 6, 3.8
Cc1cccc(CN(C)C[C@@H]2OCc3cn(nn3)CCCC(=O)N([C@@H](C)CO)C[C@H]2C)c1
    -4, -5, 0.2
COc1ccc(NC(=O)N(C)C[C@H]2OCc3ccccc3-c3ccccc3C(=O)N([C@@H](C)CO)C[C@H]2C)cc1
    20, 15, 5.4
CC[C@@H]1C/C=C\C[C@@H](C(C)C)NC(=O)CCC(=O)N1
    2, -1, 3.2
O=C(Nc1ccc2c(c1)OCO2)N1[C@@H]2CNC[C@H]1C2c1ccc(-c2cccnc2)cc1 (stereo partly drawn)
    16&2, -1&-6, 16&8.3
CO[C@@H]1CN(C)C(=O)c2ccc(NC(=O)NC(C)C)cc2OC[C@@H](C)N(CC2CC2)C[C@H]1C
    -3, -4, 0.4
Cc1noc(C)c1NC(=O)N(C)C[C@@H]1OCc2cnnn2CCCC(=O)N([C@@H](C)CO)C[C@H]1C
    7, 7, -0.1
COc1ccc(C#Cc2cccc(-c3nc(C(=O)N4CCN(Cc5ccccc5)CC4)cc4c3[C@@H](CCO)N(S(=O)C(C)(C)C)C4)c2)cc1OC (stereo partly drawn)
    2, 6, -4.5
N#C[C@@H]1[C@@H](c2ccc(C#CCC3CCCC3)cc2)[C@H](CO)N1C(=O)CN1CCOCC1
    5, 1, 3.5
Cc1noc(C)c1S(=O)(=O)Nc1ccc2c(c1)C(=O)N([C@H](C)CO)C[C@@H](C)[C@H](CN(C)C(=O)NC1CCCCC1)O2
    0, 0, 0.6
CN(C)C(=O)c1ccc(-c2ccccc2[C@H]2[C@@H](C#N)N(C(=O)C3CCC3)[C@H]2CO)cc1
    16, 2, 13
COc1ccc(NC(=O)Nc2ccc3c(c2)C(=O)N([C@H](C)CO)C[C@H](C)[C@H](CN(C)Cc2ccncc2)OCCCC[C@@H](C)O3)cc1
    1, 0, 0.6
Cc1ccc(S(=O)(=O)N2C[C@@H](O)COC[C@H]3O[C@@H](CC(=O)N[C@@H]4CCN(Cc5ccccc5)C4)CC[C@@H]32)cc1
    -7, -4, -2.6
CCCC(=O)N1CC2(CN(C(=O)NC(C)C)C2)c2c([nH]c3cc(OC)ccc23)[C@H]1CO
    13, 5, 7.4

Entries from the list above with a Cl atom (4):
The line under a structure holds: DUX4 inh, DUX4 inh difference, DUX4 inh control
COc1ccc2c3c([nH]c2c1)[C@H](CO)N(Cc1ccccc1Cl)CC31CCN(C(C)=O)CC1
    -28*, -30*, 2.0*
COc1ccc2c3c(n(C)c2c1)[C@H](CO)N(Cc1ccccc1Cl)CC31CN(C(C)=O)C1
    3, -2, 4.8
CCNC(=O)C[C@@H]1CC[C@H]2[C@@H](COc3ccc(NC(=O)Nc4ccccc4Cl)cc3C(=O)N2C)O1
    3, 2, 0.8
O=C(c1ccccn1)N1C[C@@H]2[C@H](c3ccccc31)[C@H](CO)N2C(=O)Nc1ccccc1Cl
    3, 0, 3.2
